Assay outcomes (PubChem BioAssay)
Mtb hypoxia rep – reduces hypoxia-regulated biosensor signal in M. tuberculosis. M. tuberculosis hypoxia-regulated fluorescent reporter, fluorescence. fluorescence inhibition, % (concentration not given with the values). 0.1% of 300,000 active;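 active = 35 to 45% if threefold the growth effect, above 45% if 1.5-fold the growth effect; inactive = the rest, general growth blockers included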;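 note: wells of about 50 µL received 100 nL stock; 0% = vehicle wells and 100% = reference inhibitor wells; whole bacteria with a GFP reporter of the hypoxia response; strong numbers were not always called active; many hits fall short of the cut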
Sa RN4220 lethal – kills Staphylococcus aureus RN4220; S. aureus RN4220 growth, OD600, 16 h; 0.33% of 330,000 active; inhibition, % (concentration not given with the values);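 active = z-score of -3 or lower and OD600 up to 0.18 on both plates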;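 note: plate controls were untreated cells for no effect and reference antibiotic for full effect; stock transfer was 100 nL into about 80 µL; one replicate is shown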
Sa ugtP lethal – growth inhibition of S. aureus ugtP deletion strain; S. aureus RN4220 ugtP deletion, OD600 growth, 16 h; some inactives read as strong as hits; AID 1259309; growth inhibition, % (no concentration beside the values); 0.54% of 330,000 active;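 active = z-score under -3 and OD600 up to 0.15 on both plates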;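 note: plate controls were untreated wells for no effect and antibiotic for full effect; wells of about 80 µL received 100 nL stock; the first replicate is given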
BJeLR lethal – BJeLR cell viability loss; BJeLR (HRASV12) viability, CellTiter-Glo ATP luminescence, 48 h; reference of the scale not given here; 0.17% of 300,000 active; AID 1554; inhibition, % (concentration not given with the values);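 active = replicate mean above 50%; inconclusive = above 50% but judged a plate artefact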;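 note: 50 nL library stock added to about 25 µL; numbers are from one replicate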
Bead autofluor – counter-screen for toxin protease inhibitors: compound fluorescence | 3.1% of 360,000 active | fluorescence intensity (no concentration beside the values) | compound autofluorescence counterscreen, microsphere flow cytometry; active compounds read high;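 active = at least 3 SD above the mean of all compounds, about 16000 in these data; inconclusive = too few beads counted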;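 note: 100 nL of 1 mM stock went into each well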
PrP UTR inh – inhibition of PrP 5' UTR reporter expression; cell-based PrP 5' UTR mRNA reporter, plate reader; inhibition, % (no concentration beside the values); 0.35% of 340,000 active; AID 488862;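 active = every replicate at 50% or more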;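 note: 0 = median of the neutral control wells; tested in H4 reporter cells; numbers are from one replicate; inactives centre near -14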
Mtb hypoxia rep growth – further read-out of Mtb hypoxia rep, marked with its call; growth inhibition, %; measured here: M. tuberculosis growth (absorbance);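 0% = vehicle and 100% = reference antibiotic; read after six days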
* hit, by the source's call; ? = inconclusive; / = no result given.

Each structure is followed by: Mtb hypoxia rep	Mtb hypoxia rep growth	Sa RN4220 lethal	Sa ugtP lethal	BJeLR lethal	Bead autofluor	PrP UTR inh
Cc1ccc(-c2nnn(CC(=O)NC3CCN(Cc4ccccc4)CC3)n2)cc1
    10	2	2.4	3	5	6102	1
CCC1CCCCN1Cc1nc2ccccc2c(=O)n1CC(C)=O (stereo not given)
    6	3	5.1	3	-2	?	6
CCOC(=O)C1(Cc2ccccc2C(F)(F)F)CCN(CC(O)CO)CC1 (stereo not given)
    6	11	5.0	3	-4	2271	-29
COc1ccc(CC(=O)Nc2ccc(C(=O)NC(C)(C)C)cc2)cc1OC
    17	14	-0.5	6	-9	3182	-12
COc1cccc(N2CCN(C(=O)c3ccc(Cl)c(NC4=NC5CS(=O)(=O)CC5S4)c3)CC2)c1 (stereo not given)
    4	6	2.8	7	4	4355	-26
CCCC/C(C)=N/NC(=O)c1cn(-c2ccccc2)nc1-c1ccccc1
    /	/	/	/	-5	2108	-9
CCN1C(=O)[C@H]2[C@@H](c3ccc(-c4ccc(OC)cc4)c(OC)c3)N3CCCC[C@@]3(C(=O)OC)[C@H]2C1=O
    /	/	/	/	-18	2771	-14
COc1ccc(-c2cc(C(=O)NCCCN3CCOCC3)c3cc(C(C)C)ccc3n2)cc1
    9	-2	0.4	9	-5	5748	-5
CCOP(=O)(OCC)/C(=C/N1CCCCC1)NC(=O)c1ccccc1
    13	-6	3.3	7	-7	4193	-22
C[C@@H](C(=O)Nc1ccc(SC(F)F)cc1)N1C(=O)C2CCCCC2C1=O (stereo not given in full)
    5	17	-1.2	4	/	4289	-9
CCNc1ccc(N=Nc2c(C)n(C)n(-c3ccccc3)c2=O)cc1
    4	-18	-1.2	-2	-15	3971	-2
O=C(Nc1nc2ccccc2s1)C1CCN(S(=O)(=O)c2cc([N+](=O)[O-])ccc2Cl)CC1
    /	/	2.5	-6	8	4883	-19
COc1ccc(CNC(=O)C2CCN(S(=O)(=O)c3ccc4c(c3)NC(=O)CO4)CC2)cc1
    3	-2	3.8	8	3	4365	-14
O=C(CSc1nnc(NC(=O)c2ccccc2Cl)s1)NC1CC1
    8	1	-6.1	3	-2	4410	-51
Cc1c(C(=O)N2CCCCC2)c(S(=O)(=O)N2CCc3ccccc32)c(C)n1C
    1	-6	1.5	6	-5	4263	-22
CC1(C)Cc2c(sc3nc4n(c(=N)c23)CCC4)CO1
    -2	7	1.7	0	-4	4730	9
O=C(Nc1ccnn1C1CCN(Cc2cccc(OCCO)c2)CC1)C1CCCC1
    4	3	6.4	7	-1	5101	1
COc1ccc(N2CCN(C(=O)c3cccc(S(=O)(=O)N4CCc5ccccc54)c3)CC2)cc1
    9	12	3.4	-5	/	4090	-4
COc1cc(CNC2CCCCCCC2)cc(Cl)c1OCC(N)=O
    0	10	0.1	6	-1	4497	-11
CCCCCC(=O)N=Nc1c(O)[nH]c2ccc([N+](=O)[O-])cc12
    -3	-1	13	-5	15	2048	11
c1ccc(COC2CCCN(Cc3nc(Cc4ccccc4)no3)C2)cc1 (stereo not given)
    -1	4	4.7	1	8	2429	-17
COC(=O)c1cc(C(=O)c2cc(Br)ccc2O)coc1=N
    7	-3	4.8	7	-4	4592	-14
CCOc1ccccc1NC(=O)C1(S(=O)(=O)c2ccc(Cl)cc2)CC1
    -1	-4	3.3	5	0	6585	-7
Cc1ccc(CSc2ccc(-c3ccco3)nn2)cc1
    -5	-7	3.1	13	-1	8914	-45
Cc1ccc(/C(=N\O)c2oc3c(C)c4oc(=O)cc(C)c4cc3c2C)cc1
    /	/	/	/	-3	4156	-34
O=C(Cn1c(-c2cscn2)nc2ccccc21)Nc1ccc(Cl)cc1
    2	-1	7.2	0	2	2663	-7
O=C(NC(=S)Nc1ccccc1N1CCCCC1)c1ccco1
    6	5	-8.7	0	3	2203	-30
Cc1ccc2cc(CN(CCCO)S(=O)(=O)c3cccc4nsnc34)c(=O)[nH]c2c1C
    -11	14	1.7	-9	2	10579	8
CCOc1cc(NC(=O)C2CCCCC2)c(OCC)cc1NC(=O)c1ccco1
    9	6	13	-4	2	3607	0
Cc1cc(NC(=O)/C=C/C(=O)N(c2ccccc2C)C(C(=O)NC2CCCC2)c2ccc(F)cc2)no1 (stereo not given)
    11	6	6.0	-1	1	12206	-18
O=C(NCCNS(=O)(=O)c1ccc(C(F)(F)F)cc1)N1CCOCC1
    6	22	3.4	6	2	6360	-15
CC(=O)Nc1ccc(N(C(=O)c2ccco2)C(C(=O)NC2CCCC2)c2ccc(N3CCOCC3)cc2)cc1 (stereo not given)
    15	6	0.1	-1	0	4013	-48
COc1ccc(C(=O)NCC2CCCN2S(=O)(=O)c2cccs2)cc1OC (stereo not given)
    6	2	4.6	8	11	4107	-6
COc1ccccc1CCC(=O)NNC(=O)c1ccccc1
    -9	2	2.7	1	2	5136	-33
CSc1ncc(CN2CCCCC2C(=O)Nc2ccc(Oc3ccccc3)nc2)cn1 (stereo not given)
    /	/	/	/	-3	5893	-24
Cc1c(Cl)cccc1NC(=S)C(=C([O-])c1ccc(Cl)s1)[n+]1ccccc1
    7	2	4.5	23	/	3597	-8
Cc1snc(SCC(=O)NN=C(N)COc2cccc(C(F)(F)F)c2)c1C#N
    4	8	5.5	-11	/	/	/
COc1ccc(-c2ccc(C#N)c(SCC(=O)Nc3sc4c(c3C#N)CCC4)n2)cc1
    /	/	-0.4	3	2	3966	-16
CC(C)(C)NC(NC(=O)Cc1ccccc1)C(Cl)(Cl)Cl (stereo not given)
    2	1	3.9	5	-8	4294	0
Cc1cc(C(=O)NNS(=O)(=O)c2cc(C(=O)O)ccc2Cl)c(C)n1-c1ccccc1
    6	7	-2.5	0	/	9072	3
O=C(Nc1ccc2c(c1)OCCO2)c1ccc(Br)s1
    11	3	4.9	1	-3	10674	-102
CCCNC(=O)Nc1ccsc1C(=O)OC
    0	-16	9.8	4	7	2736	-18
OC(CNCc1ccc(F)cc1)(c1ccc(F)cc1)c1ccc(F)cc1
    12	6	0.7	-6	8	6190	-22
CCOC(=O)c1c(-c2ccco2)csc1NC(=O)COC(=O)c1cnc(C)cn1
    1	-5	6.8	-1	7	6632	-9
O=C(c1cc(-c2cccc(O)c2)on1)N1CCc2ccccc2C1
    /	/	1.2	8	1	6410	-12
CN(C)C(=O)c1ccc(NC(=O)c2ccccc2-c2ccccc2)cc1
    9	0	3.4	4	-10	4212	-26
COc1ccc(N2CCN(c3cc(C)nc4ccc(OC)cc34)CC2)cc1
    16	9	1.8	-5	-6	4942	-6
O=C(NN=C/C(Cl)=C/c1ccc([N+](=O)[O-])cc1)C(=O)Nc1ccccc1C(=O)O
    13	3	3.3	3	/	/	/
CCOc1ccc(NC(=O)CSc2nccn(-c3ccc4c(c3)OCCO4)c2=O)cc1
    8	6	1.1	8	10	?	-32
Cc1cc(C)n(CC(O)Cn2c(C)c(C)c3ccccc32)n1 (stereo not given)
    /	/	-0.7	-9	-3	4825	5
Cc1ccc(N2C(=O)C(Cl)=C(N3CCN(C)CC3)C2=O)c(C)c1
    2	8	15	14	-10	2472	14
Cc1ccc2c(C)ccc(O)c2n1
    4	-5	0.6	8	3	4557	-16
CCc1ccccc1NC(=O)/C(=C/c1ccco1)c1ccccc1
    /	/	-6.4	4	1	4867	-35
O=C(COC(=O)c1ccncc1)NCc1ccccc1
    12	16	-10.0	-5	2	3682	-6
COc1ccc(CCNC(=O)C2CC3Cn4c(nc5cc(C)c(C)cc54)C3N2C)cc1 (stereo not given)
    8	10	3.4	5	2	4601	-3
CCOC(=O)c1sc2ncnc(Nc3cccc(C(=O)O)c3)c2c1C
    7	13	7.8	14	-7	3957	-30
CC1(C)CC(=O)C(C(C2=C(O)CC(C)(C)CC2=O)c2cccnc2)C(=O)C1 (stereo not given)
    /	/	0.7	11	-1	4231	-14
COc1cc(C(C[N+](=O)[O-])c2c(-c3ccccc3)cc3ccccn23)cc(OC)c1OC (stereo not given)
    /	/	18	-16	-4	3787	-34
CCN(CC(=O)NCc1ccc(Cl)cc1)C(=O)Cc1ccccc1[N+](=O)[O-]
    7	4	3.4	14	0	5511	-18
CCN(CC)C(=O)CSc1nnc(-c2cc(-c3ccc(Cl)cc3)nc3ccccc23)o1
    -3	6	6.1	-14	5	2059	-61

Gathered by group: the compounds so far with bromine.
Each structure is followed by: Mtb hypoxia rep	Mtb hypoxia rep growth	Sa RN4220 lethal	Sa ugtP lethal	BJeLR lethal	Bead autofluor	PrP UTR inh
COC(=O)c1cc(C(=O)c2cc(Br)ccc2O)coc1=N
    7	-3	4.8	7	-4	4592	-14
O=C(Nc1ccc2c(c1)OCCO2)c1ccc(Br)s1
    11	3	4.9	1	-3	10674	-102

(cont.)
Each structure is followed by: Mtb hypoxia rep	Mtb hypoxia rep growth	Sa RN4220 lethal	Sa ugtP lethal	BJeLR lethal	Bead autofluor	PrP UTR inh
O=Cc1ccc(-n2cncn2)cc1
    1	8	5.1	8	-3	2406	-7
CC1(C)C(=O)Nc2ccccc2N1C(=O)COC(=O)c1cc(Cl)cc(Cl)c1
    -4	-4	-0.8	-7	/	3001	-16
O=C(O)C1Cc2ccccc2CN1S(=O)(=O)c1ccc(Cl)cc1 (stereo not given)
    2	7	1.2	14	-5	3836	-21
COc1ccc(CNC(=O)C(c2cccs2)N(Cc2ccco2)C(=O)Cc2cccs2)cc1 (stereo not given)
    11	8	2.9	-2	-7	3744	-8
O=C(CSc1nnc(CNC(=O)c2c(F)cccc2F)o1)NCc1ccccc1Cl
    -3	-3	2.4	6	4	5318	-3
Cc1nc(CNC(=O)c2ccccc2OC2CCN(S(C)(=O)=O)CC2)cs1
    2	5	4.8	4	-4	4344	-19
Cc1ccc(CNC(=O)CN2C(=O)COc3ccc(S(=O)(=O)N4CCC(C)CC4)cc32)o1
    8	0	1.1	4	5	4556	-7
COc1ccc(NC2(c3ccccc3)OC(=O)c3ccccc32)cc1 (stereo not given)
    3	9	5.8	-4	1	4693	-8
COC(=O)CC1COc2ccccc2N1C(=O)c1ccc(C(C)(C)C)cc1 (stereo not given)
    10	13	1.0	1	5	20115*	-27
Cc1cccc(C)c1NC(=O)C1CCN(C(=O)c2cccs2)CC1
    1	8	2.3	1	-3	3851	-28
CC1CCN(S(=O)(=O)c2nnc(NC(=O)c3cccc(Cl)c3)s2)CC1
    14	9	19	20	4	5254	-16
Cn1c(N)c(C(=O)CSc2nn(-c3ccc(F)cc3)c(=S)s2)c(=O)n(C)c1=O
    11	4	2.2	-4	/	9215	-38
Cc1cn(C(C(=O)NCCCCCCCCCCC(=O)N2CCN(C(=O)OC(C)(C)C)CC2)C(C)O)nn1 (stereo not given)
    -3	-9	7.2	5	/	/	/
O=C(CC(=O)NCc1ccc(Cl)cc1)NCc1ccccc1
    1	-1	0.0	11	9	4055	-28
O=C(O)c1cc(O)c2c(c1)C(=O)c1cccc(O)c1C2=O
    /	/	/	/	8	5514	-12
CCSc1nc2ccccc2n1C(=O)/C=C/c1ccc(OC)c(OC)c1
    -2	-2	-2.8	-14	32	2203	-38
Cc1cccn2c(=O)c3cc(C(=O)NC4CCCC4)sc3nc12
    -1	-3	2.4	6	7	/	-72
COc1ccc(CC(=O)Nc2ccc(/C(C)=N/NC(=O)c3ccc(OC)cc3OC)cc2)cc1
    /	/	/	/	0	5634	-9
CCc1ccc(C(=O)C[n+]2cccc3cc(OC)ccc32)cc1
    19	8	5.4	-4	0	5149	-28
CCN1CCN(c2ccc(S(=O)(=O)N3CCCCC3)cc2NC(=O)Cc2c(Cl)cccc2Cl)CC1
    /	/	/	/	11	6751	-25
Cn1nc(C(F)(F)F)c(C=NOC(=O)c2ccc(Cl)cc2)c1Cl
    3	3	3.9	3	/	/	/
CCOP(=O)(c1ccc(N(C)C)cc1)C(O)c1cccnc1 (stereo not given)
    10	-1	2.5	7	5	4211	-17

2 entries from above, field by field.
O=Cc1ccc(-n2cncn2)cc1
  Mtb hypoxia rep: 1
  Mtb hypoxia rep growth: 8
  Sa RN4220 lethal: 5.1
  Sa ugtP lethal: 8
  BJeLR lethal: -3
  Bead autofluor: 2406
  PrP UTR inh: -7

Cc1cccn2c(=O)c3cc(C(=O)NC4CCCC4)sc3nc12
  Mtb hypoxia rep: -1
  Mtb hypoxia rep growth: -3
  Sa RN4220 lethal: 2.4
  Sa ugtP lethal: 6
  BJeLR lethal: 7
  Bead autofluor: /
  PrP UTR inh: -72
